Source: PubChem BioAssay (National Center for Advancing Translational Sciences (NCATS))
VDR inhibitor – Inhibitors of the vitamin D receptor (VDR): qHTS | Potency, µM, for the others: max response, negative = inhibition, actives largely listed as inhibitors | hit rate 0.93% among 400,000 | VDR-SRC2-3 peptide fluorescence polarization, 2 h; active = well fitted inhibition curve with a large enough effect; inconclusive = small, poorly fitted or top-dose-only effect, or another doubt; inactive = no such curve, though single readings can be large or run the other way; also: series mostly up to about 120 µM
Target sequence (P11473 whole entry, looked up): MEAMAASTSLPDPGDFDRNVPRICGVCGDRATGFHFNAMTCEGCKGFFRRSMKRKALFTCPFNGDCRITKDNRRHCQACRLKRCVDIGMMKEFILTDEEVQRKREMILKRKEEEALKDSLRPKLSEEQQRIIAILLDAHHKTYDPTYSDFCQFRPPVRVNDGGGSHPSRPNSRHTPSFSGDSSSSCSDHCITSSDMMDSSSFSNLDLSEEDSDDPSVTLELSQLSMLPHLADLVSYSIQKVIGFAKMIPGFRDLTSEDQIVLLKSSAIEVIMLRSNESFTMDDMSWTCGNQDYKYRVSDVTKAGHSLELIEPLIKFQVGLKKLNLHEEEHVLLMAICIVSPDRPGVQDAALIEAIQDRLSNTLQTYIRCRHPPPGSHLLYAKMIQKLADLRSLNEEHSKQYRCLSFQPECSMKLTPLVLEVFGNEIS
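Two reagent solutions held at 4 deg C in the dark were dispensed, compounds pinned at 23 nl, and the mixture incubated 2 h at room temperature. Read-out: fluorescence polarization of VDR–SRC2-3 peptide binding.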
Starred values were filed as active, the others as inactive; ? = inconclusive. % is scaled to controls: 0 for no effect and ±100 for the full control effect; potency is read from the fitted curve at half-maximal effect. An excerpt. The share of hits here may be higher or lower than overall.

Molecule | VDR inhibitor
Cc1ccc(NC(=O)C2CC(=O)N(C(C)C)C2)cc1C (centres undefined) | 1%
C[C@@H](NS(=O)(=O)c1ccc(Br)cc1F)[C@@H](O)c1ccccc1 | 0%
CC1CCCC(C)N1C(=O)COC(=O)c1ccc(F)c(S(=O)(=O)N2CCOCC2)c1 (centres undefined) | 13%
O=C(CSc1nnc(-c2ccc(Cl)cc2)n1-c1ccccc1)N/N=C/c1ccccc1C(=O)O | 0%
CC(=O)OCc1c(F)c(F)c(-n2nc(C)cc2C)c(F)c1F | -20%
Cc1c(Cc2c(Cl)cccc2Cl)c(=O)ccn1C(C)c1ccccc1 (centres undefined) | -3%
Cc1ccc(NC(=O)CN(C)C(=O)Cc2ccc3c(c2)CCC3)cc1 | -11%
Cc1cc(C)c(S(=O)(=O)N2CCN(c3ccccc3)CC2)c(C)c1 | -6%
CCc1nc2ccccc2c(C(=O)OCC(=O)Nc2ccc(S(=O)(=O)N3CCOCC3)cc2)c1C | 13%
C=CCNc1oc(-c2cccc(Cl)c2)nc1C#N | ?
COc1cccc(/C=C(/C#N)c2ccc(F)cc2)c1OCc1cccc(C(=O)O)c1 | -17%
CC1CCC(C(=O)NC(C(=O)N2CCc3ccccc3C2)C(C)C)CC1 (centres undefined) | 4%
CC(NC(=O)CCCc1ccccc1)c1ccncc1 (centres undefined) | -18%
Cc1ccc(NC(=O)CSc2ncc(S(=O)(=O)c3ccccc3)c(=O)[nH]2)cc1C | -5%
COC(=O)[C@@]1(Cc2ccc(OC)cc2)[C@H]2c3cc(C(=O)N(C)C)[nH]c3C[C@H]2CN1C(=O)c1ccccc1 | -8%
CCSc1ccc([C@@H]2[C@@H]3C(=O)N(C)C(=O)[C@@H]3[C@]3(C(=O)OC)CCCCN23)cc1 | -10%
Cc1nnc(SCC(=O)NNC(=O)c2ccccc2)n1-c1ccccc1 | -4%
CCc1ccc(NC(=O)CSc2nnc(CNC(=O)c3cccs3)o2)cc1 | -7%
O=[N+]([O-])c1cccc(-c2noc(-c3cccs3)n2)c1 | -7%
COc1ccc(-c2nnc(SCC(=O)NC(C)c3ccccc3)o2)cc1 (centres undefined) | ?
CC1(C)CC(=O)C(Sc2ccc(Br)cc2)=C(O)C1 | 0%
Cc1nc(CS(=O)(=O)c2ccccn2)sc1C(=O)NNC(=O)c1ccccc1 | -4%
CCOc1ccccc1Cn1c(=O)oc2ccc(C)cc21 | -4%
CN(C)c1ccc(C(CNC(=O)c2ccccc2)c2c[nH]c3ccccc23)cc1 (centres undefined) | -16%
COc1ccc(C(=O)Nc2nnc(S(=O)(=O)N3CCN(c4ccc(C)cc4)CC3)s2)cc1 | 1%
Cc1ccc(OCC(=O)N/N=C/c2cc([N+](=O)[O-])ccc2N2CCCCC2)cc1 | -23%
COc1cccc(NC(=O)Nc2cc(C(=O)O)ccc2C)c1 | -16%
CCC(C)(C)NC(=O)C(C)OC(=O)c1nsc(Cl)c1Cl (centres undefined) | -19%
C/C(CC(=O)Nc1c(C)cc(C)cc1C)=N\NC(=O)OC(C)(C)C | -7%
CCc1c(C)nc2nncn2c1Nc1ccc(Cl)cc1 | 0%

By substructure, those above containing an NH in an aromatic ring.
Molecule | VDR inhibitor
Cc1ccc(NC(=O)CSc2ncc(S(=O)(=O)c3ccccc3)c(=O)[nH]2)cc1C | -5%
COC(=O)[C@@]1(Cc2ccc(OC)cc2)[C@H]2c3cc(C(=O)N(C)C)[nH]c3C[C@H]2CN1C(=O)c1ccccc1 | -8%
CN(C)c1ccc(C(CNC(=O)c2ccccc2)c2c[nH]c3ccccc23)cc1 (centres undefined) | -16%

Next part.
Molecule | VDR inhibitor
C/C(=N\NC(=O)c1nnn(-c2nonc2N)c1-c1ccccc1)c1ccccc1O | 0%
COC(=O)c1ccccc1NCCO | -10%
COc1ccc(C2=NN3C(=O)c4c(ccc(OC)c4OC)C3C2)cc1 (centres undefined) | 10%
CCCCOc1ccc(Cl)cc1Nc1nc(NCCO)nc(N2CCCC2)n1 | 6%
CCSc1nnc(NC(=O)c2cc(-c3ccccc3O)n[nH]2)s1 | 8%
CN(CC(=O)N1CCN(c2ccc(F)cc2)CC1)S(=O)(=O)c1ccc(F)cc1 | 10%
Cn1sc(=O)n(Cc2ccccc2)c1=O | 5µM*
CC(=O)c1ccc(S(=O)(=O)N2CCC(NC(=O)c3ccccc3)CC2)cc1 | 4%
O=C(CSc1c2c(nc3cc(Cl)ccc13)CCCC2)N1CCN(c2ccccc2F)CC1 | ?
COc1ccc(Cl)cc1NC(=O)C1CCN(S(=O)(=O)c2ccc3c(c2)CC(C)N3C(C)=O)CC1 (centres undefined) | 7%
Cc1ccc(N2CCN(C(=O)c3c(C)oc4ncn(CC(C)C)c(=O)c34)CC2)c(C)c1 | 13%
CCOC(=O)c1c(C)[nH]c(C)c1S(=O)(=O)N1CCC(C(=O)N2CCN(c3cccc(C)c3)C(C)C2)CC1 (centres undefined) | 7%
CN1CCCC2(CCN(C(=O)c3cccc(F)c3)CC2)C1 | 9%
Cc1ccc(CN2CC(C(=O)N(C)CC(=O)Nc3cccc(F)c3)CC2=O)cc1 (centres undefined) | 7%
CCCC(=O)Nc1ccc(C(=O)NCCc2ccc(F)cc2)cc1 | 4%
O=C(Cc1ccc(NC(=O)C2CCN(C(=O)C3CCC3)CC2)cc1)Nc1ccc(C(=O)N2CCOCC2)cc1 | -28%
COc1ccccc1NC(=S)NC(=O)/C=C/c1cccs1 | -4%
Cc1cnn(-c2cc(N/N=C/c3ccc(F)cc3)ncn2)c1 | 23%
CN(c1ccccc1)S(=O)(=O)c1cccc(C(=O)OCC(=O)NCc2ccc3c(c2)OCO3)c1 | -4%
CCOCCCNC(=O)CN1C(=O)/C(=C/c2ccccc2)Sc2ccccc21 | 4%
CCOc1cc2c(cc1OCC)C(CC(=O)OC)N(C(=O)Nc1cc(C)cc(C)c1)CC2 (centres undefined) | 15%
CCCOc1cccc(-c2cc(C(=O)NN)c3ccccc3n2)c1 | -5%
O=C(O)c1cc(N/N=C/C=C/c2ccccc2[N+](=O)[O-])ccc1Cl | 7%
COc1ccc(NC(=O)Cn2nnc(C(=O)NCc3cccs3)c2N)c(OC)c1 | -24%
CN1CCN(C(=O)C2=C[C@H](c3ccc(Br)cc3)C[C@H](OCCCCO)O2)CC1 | -6%
COc1ccc(Cl)cc1NC(=O)CN1C(=O)CCS(=O)(=O)c2ccccc21 | 13%
O=C(c1csnn1)N1CCC2(CC1)CCN(C(c1ccccc1)c1ccccc1)CC2 | -19%
Cc1cccc(C)c1NC(=O)CN(C)C(=O)C1CCN(c2ncnc3sc(C)c(C)c23)CC1 | -11%
CC[C@]1(C(=O)OC)[C@H]2C(=O)N(Cc3ccccc3)C(=O)[C@H]2[C@H]2CN=C(SCc3ccc(C)cc3)N21 | -12%
CSCCC(NC(=O)c1ccccc1Br)C(=O)N1CCC(C)CC1 (centres undefined) | 16%
C/C(Cn1cnc([N+](=O)[O-])n1)=N\NC(=O)c1ccc(F)cc1 | 1%
O=C(COC(=O)c1cnccn1)NCc1ccc2c(c1)OCO2 | -11%
COc1cc2c(cc1OC)-c1c(oc3cc(O)cc(O)c3c1=O)CO2 | ?
COC(=O)Cn1nc(-c2ccccc2)n(-c2ccccc2)c1=S | -3%
COc1ccc(Oc2ncc3nc(C)c(=O)n(Cc4ccc(F)cc4)c3n2)cc1 | -28%
COc1ccccc1CNc1ccnc(-c2ccc(N(C)C)cc2)n1 | -13%
COc1cc(CNCCc2ccccc2F)ccc1OCC(=O)N1CCCCC1 | -3%
Cc1ccc2oc(C(=O)N(CCO)Cc3ccccc3)c(C)c2c1 | 8%
CC1CCCN(C(=O)CSc2nnc3n(C4CCCC4)c(=O)c4ccccc4n23)C1 (centres undefined) | -9%
COc1ccc(NC(=O)c2cc(OC)c(OC)c(OC)c2Br)cc1OC | 10%

Continued; the last four above are carried over.
Molecule | VDR inhibitor
COc1cc(CNCCc2ccccc2F)ccc1OCC(=O)N1CCCCC1 | -3%
Cc1ccc2oc(C(=O)N(CCO)Cc3ccccc3)c(C)c2c1 | 8%
CC1CCCN(C(=O)CSc2nnc3n(C4CCCC4)c(=O)c4ccccc4n23)C1 (centres undefined) | -9%
COc1ccc(NC(=O)c2cc(OC)c(OC)c(OC)c2Br)cc1OC | 10%
CCOc1ccc(N(C(C)C(=O)NC2CCCCCC2)S(C)(=O)=O)cc1 (centres undefined) | -7%
CCOC(=O)C1CCN(CCCSc2ccc(Cl)cc2)CC1 | -15%
O=C(CCCN1C(=O)c2cccc3cccc(c23)C1=O)N1CCN(c2ccc(F)cc2)CC1 | 4%
COn1c(=O)c(-c2ccc(F)cc2)[n+]([O-])c2ccccc21 | -12%
COc1ccc(S(=O)(=O)NCCc2csc3nc(-c4ccc(OC)c(OC)c4)nn23)cc1C | 6%
Cn1c(=O)[nH]c(=O)c2[nH]c(NCCCN3CCOCC3)nc21 | -1%
CCc1cccc(-n2nnc(-c3nsc(NC(=O)c4cccc(OC)c4)n3)c2C)c1 | 6%
O=S(=O)(c1ccc(F)c(F)c1)N1CCC2(CC1)OCCO2 | 8%
C=CCc1c(C)nc(-c2ccccc2)nc1Nc1ccccc1O | 15%
CCCc1cc(=O)[nH]c(SCC(=O)NC2CCCc3ccccc32)n1 (centres undefined) | -2%

3 neighbouring entries already listed, quoted:
Molecule | VDR inhibitor
CCOc1ccc(N(C(C)C(=O)NC2CCCCCC2)S(C)(=O)=O)cc1 (centres undefined) | -7%
CCOC(=O)C1CCN(CCCSc2ccc(Cl)cc2)CC1 | -15%
O=C(CCCN1C(=O)c2cccc3cccc(c23)C1=O)N1CCN(c2ccc(F)cc2)CC1 | 4%

The listing continues.
Molecule | VDR inhibitor
COc1ccc2cc(CNc3ccccc3)c(=O)n(CC(=O)Nc3ccc(C(C)=O)cc3)c2c1 | 3%
O=S(=O)(Cc1ccccc1)c1cnc2ccccc2n1 | -12%
COc1cccc(NC(=O)COC(=O)/C=C/c2ccco2)c1 | -9%
O=c1c2ccccc2[nH]c(=S)n1CCCN1CCN(c2ccccc2F)CC1 | -18%
O=C(Cc1ccc(-n2c(=O)[nH]c3ccsc3c2=O)cc1)NCc1cccnc1 | 1%
COc1ccc(CC(=O)N2CCN(C(=O)c3ccco3)CC2)cc1 | -2%
O=C(OCC(=O)N1CCN(S(=O)(=O)c2ccccc2)CC1)C1CCC1 | -15%
CC(C)CNC(=O)COC(=O)CNC(=O)c1cc(Cl)cc([N+](=O)[O-])c1 | -1%
Cc1noc(-c2ccc(N3CCCCC3)c([N+](=O)[O-])c2)n1 | 14%
COc1ccc(NC(C)=O)cc1S(=O)(=O)Nc1ccc(S(=O)(=O)N2CCCCC2)cc1 | -14%
COc1ccc(CCn2c(-c3ccco3)nc3ccccc3c2=O)cc1OC | 11%
CCC(C)N(C(=O)COC(=O)c1ccccc1SCC(=O)N1CCCC1)C1CCS(=O)(=O)C1 (centres undefined) | -11%
CC(CN1CCOCC1)c1ccccc1 (centres undefined) | -1%
CC(=O)N1CCN(C(=O)c2ccc(Cl)c(S(=O)(=O)N3CCCCCC3)c2)CC1 | -10%
O=C(CSc1nnc(-c2ccc3c(c2)OCO3)o1)Nc1c(F)cccc1F | 18%
Cc1cc(C)n2nc(SCC(=O)N3CCCC3)nc2n1 | -6%
COc1cc(NC(=O)CN2C(=O)NC(c3ccccc3)(c3ccccc3)C2=O)cc(OC)c1 | 13%
N=C(c1ccc([N+](=O)[O-])cc1)N1CCCCCC1 | -17%
CCC(C(=O)Nc1sc(C(N)=O)c(C)c1C(=O)OC)c1ccccc1 (centres undefined) | 8%
CCCCCCCN1C(Nc2ccccc2)=NC[C@@H]1Cc1ccccc1 | -23%
CCOC(=O)N1CCc2c(sc3c2c(=O)n(Cc2ccccc2)c(=O)n3Cc2ccccc2F)C1 | 22%
Nc1[nH][nH]c(=O)c1N=Nc1ccc2c(c1)OCO2 | -19%
Cc1c(C(=O)N2CCCCC2)c(S(=O)(=O)NCc2ccc(F)cc2)c(C)n1C | -12%
COCCCNC(=O)CCn1c(=O)c2ccccc2n(CC(=O)NCCC2=CCCCC2)c1=O | -8%
Cn1c(=O)c2sccc2n2c(CCC(=O)NCc3ccc(F)cc3)nnc12 | ?
O=C(CC1CCCC1)Nc1ccc2c(c1)CCC2 | 2%
COc1ccc(C(=O)NC2CCN(Cc3c(F)cccc3Cl)CC2)cc1OC | -4%
O=C(CNC(=O)c1ccccc1)N/N=C/c1cc(Br)ccc1O | -5%
CC1CN(S(=O)(=O)c2cccs2)CC(C)O1 (centres undefined) | -6%
COc1ccc(NC(=O)Cc2csc(NC(=O)Nc3ccccc3OC)n2)c(OC)c1 | -8%
CCOc1ccc(CCNC(=O)COC(=O)c2nc(Cl)ccc2Cl)cc1OCC | -17%
Cn1c(=O)c2c(ncn2CC(=O)NC[C@H]2O[C@@H](n3cnc4c(N)ncnc43)[C@H](O)[C@@H]2O)n(C)c1=O | 4%
O=C(CCN1CCN(C/C=C/c2ccccc2)CC1)Nc1ccc(Cl)cc1 | 13%
Cc1nnc(SCC(=O)Nc2ccc3c(c2)OCCO3)n1CC1CCCO1 (centres undefined) | -17%
O=C(N1CCOCC1)N1CCC(n2nnc3cc(F)ccc32)CC1 | -2%
Cc1cccc(NC(=O)Cn2cc(S(=O)(=O)c3ccc(F)cc3)c(=O)c3cc4c(cc32)OCO4)c1 | -18%
